Assay outcomes deposited in PubChem BioAssay by National Center for Advancing Translational Sciences (NCATS).
CtBP-E1A inh: qHTS Assay for Inhibitors of the CtBP/E1A Interaction | CtBP / adenovirus E1A interaction (AlphaScreen) | AlphaScreen GST-E1A/His-CtBP binding, 1536-well; stronger effect = lower value; control for the full effect not named in the record | activity change, % (no concentration beside the values) | 340,000 compounds, 0.49% hits | AID 651724, 2012; in the data active means activity change below about -65%; inconclusive means about -30% to -65%; inactive means above about -30%; also: % is scaled to controls: 0 for no effect and ±100 for the full control effect
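Protein mix (5X: 125 nM each GST-E1A, His-CtBP) was incubated with pinned compound 2 h at 37 deg C in dark, in 50 mM Tris pH 8.0 buffer with 300 mM NaCl. Glutathione donor and nickel acceptor beads followed; AlphaScreen signal read after 1 h.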
D2 potentiator: Beta-Arrestin HTS for Positive Allosteric Modulators of the Human D2 Dopamine Receptor: Potentiators | D(2) dopamine receptor (Homo sapiens), P14416 | DiscoveRx D2 beta-arrestin cells, luminescence, 90 min; 100% = 57 uM dopamine signal | potentiation, % (concentration not given with the values) | 360,000 compounds, 0.23% hits | AID 624464, 2012; active = potentiation of 50% or more; inconclusive = 30% to 50%; inactive = 30% or less;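 also: tested on top of an EC20 dose of dopamine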
Target sequence (P14416 whole entry, looked up): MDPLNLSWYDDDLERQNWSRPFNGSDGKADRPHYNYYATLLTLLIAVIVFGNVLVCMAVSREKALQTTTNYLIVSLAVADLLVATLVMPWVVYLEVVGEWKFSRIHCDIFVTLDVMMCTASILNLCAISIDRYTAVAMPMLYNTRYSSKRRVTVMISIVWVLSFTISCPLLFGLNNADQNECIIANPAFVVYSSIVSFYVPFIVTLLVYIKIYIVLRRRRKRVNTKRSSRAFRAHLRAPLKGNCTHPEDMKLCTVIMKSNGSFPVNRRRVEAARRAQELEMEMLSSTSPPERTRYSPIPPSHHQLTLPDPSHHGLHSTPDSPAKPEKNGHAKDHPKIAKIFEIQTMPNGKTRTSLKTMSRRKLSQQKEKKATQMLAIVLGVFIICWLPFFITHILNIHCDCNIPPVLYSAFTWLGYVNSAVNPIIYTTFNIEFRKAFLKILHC
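PathHunter D2 cells, attached overnight at 37 deg C, received compound in DMSO plus dopamine at EC20 (50 nM final) for 90 min at 37 deg C. Beta-arrestin recruitment was read as luminescence after 1 h with detection reagent at ambient temperature.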
Six1-Eya2 inh: qHTS Assay for Inhibitors of the Six1/Eya2 Interaction | AlphaScreen GST-Six1/His-Eya2 binding, biochemical; stronger effect = lower value; control for the full effect not named in the record | AID 651725, 2012 | activity change, % (test concentration not listed) | 360,000 compounds, 0.56% hits | Homeobox protein SIX1 (Homo sapiens) + Protein phosphatase EYA2 (Homo sapiens), …; in the data active = activity change below about -65%; inconclusive = about -30% to -65%; inactive = above about -30%; also: % is scaled to controls: 0 for no effect and ±100 for the full control effect
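Compounds are tested against tagged Six1 and Eya2 proteins bridged by glutathione donor and nickel acceptor beads; after a one-hour incubation at 37 °C without light, AlphaScreen emission is recorded.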
TRPML1 ag: qHTS for Agonists of the Human Mucolipin Transient Receptor Potential 1 (TRPML1). TRPML1-expressing cells, Ca2+ dye fluorescence, FDSS; host cell line not named in the record; reference of the full effect not given here. activation, % (concentration not given with the values). 410,000 compounds, 0.12% hits. AID 624414, 2012; in the data active = activation above about 50%; inconclusive = about 30% to 50%; inactive = below about 30%; also: 0% is about no effect; the text of the record puts the active cut at 80%
Target sequence (Q9GZU1 whole entry, looked up): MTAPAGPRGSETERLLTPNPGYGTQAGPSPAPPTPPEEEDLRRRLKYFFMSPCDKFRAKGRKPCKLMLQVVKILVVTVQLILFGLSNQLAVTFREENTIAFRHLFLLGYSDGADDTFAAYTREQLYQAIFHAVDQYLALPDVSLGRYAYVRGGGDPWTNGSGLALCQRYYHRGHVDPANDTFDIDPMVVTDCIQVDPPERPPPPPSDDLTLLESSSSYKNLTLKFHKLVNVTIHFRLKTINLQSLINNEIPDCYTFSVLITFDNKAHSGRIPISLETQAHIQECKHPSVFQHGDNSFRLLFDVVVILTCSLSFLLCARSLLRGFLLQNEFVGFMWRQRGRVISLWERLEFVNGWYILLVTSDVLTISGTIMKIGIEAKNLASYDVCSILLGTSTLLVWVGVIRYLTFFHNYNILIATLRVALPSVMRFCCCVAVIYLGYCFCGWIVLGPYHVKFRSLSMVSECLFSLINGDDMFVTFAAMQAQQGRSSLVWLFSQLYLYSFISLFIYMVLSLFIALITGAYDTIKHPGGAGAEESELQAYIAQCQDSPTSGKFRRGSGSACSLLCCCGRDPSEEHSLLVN
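Cells: TRPML1-DL, 1X Tet inducer, ~16 h at 37 degrees C/5% CO2. Dye: ABD Ca8 no-wash + quencher, 45-90 min RT. Read: 10 s baseline, compound add, 110 s agonist phase; 54-4 EC80 (4uM final), 110 s antagonist phase.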
D2 agonist: Beta-Arrestin HTS for Positive Allosteric Modulators of the Human D2 Dopamine Receptor: Agonists; D(2) dopamine receptor (Homo sapiens), P14416; activation, % (no concentration beside the values); DiscoveRx PathHunter D2 beta-arrestin, luminescence, 90 min; 100% = 57 uM dopamine signal; 360,000 compounds, 0.084% hits; in the data active = activation above about 40%; inconclusive = about 15% to 40%; inactive = below about 15%; also: compound concentration not given in the record; the text of the record calls up to 30% inactive
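Agonist mode: compounds alone added to overnight-plated D2 PathHunter cells for 90 min at 37 C, with 57 uM final dopamine (EC100) defining full response. Beta-arrestin recruitment detected by chemiluminescent reagent, read after 1 h at ambient temperature.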
PINK1 modulator: A Quantitative High throughput Screen to Identify Chemical Modulators of PINK1 Expression | PINK1 immunofluorescence, high-content cytometry, 24 h | Potency, µM (highest dose often 76.6 µM), for the others: top-dose activation (PINK1 increase), actives largely listed as activators | 410,000 compounds, 0.2% hits | AID 624263, 2012; active = well fitted activation curve with a large enough effect; inconclusive = small, poorly fitted or top-dose-only effect; inactive = flat fitted curve, though single readings scatter; cell line not stated here;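 also: potency is read from the fitted curve at half-maximal effect; % of control where 0% means no effect; nearly all actives have a fitted effect of over 65% in size; a mitochondrial uncoupler was the plate control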
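Readout is PINK1 immunofluorescence, quantified alongside mitochondrial, cell and nuclear markers by laser-scanning microplate cytometry. Cells from a stable line were exposed to compound titrations (5 concentrations) for 24 hours, with CCCP controls.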
* marks the source's active call; other numbers are inactive results; ? = inconclusive; / = not tested or not shown; [ ] = remark or other dose.

SMILES | CtBP-E1A inh | D2 potentiator | Six1-Eya2 inh | TRPML1 ag | D2 agonist | PINK1 modulator
COc1ccc(N2CCN(C(=O)C3Cc4ccccc4CN3C(=O)c3ccco3)CC2)cc1 (configuration not stated) | -3 | 22 | -6 | 0.1 | 3.2 | -1.3%
O=C(O)CN1CCCCCC1=O | 2 | -7 | -5 | 0.8 | -0.9 | 2.8%
O=S1(=O)Nc2c(ccc3cccnc23)-c2ccccc21 | -89* | -23 | -91* | 1.1 | -3.3 | -8.3%[38.3 µM]
Cc1cc(C)n2nc(CC(=O)NCc3ccc(F)cc3)nc2n1 | 4 | -4 | -14 | -0.6 | -4.3 | 1.6%
Cc1ccc(NC(=O)CN(C)C(=O)C(C)OC(=O)CNC(=O)c2ccc(Cl)c([N+](=O)[O-])c2)cc1 (configuration not stated) | -4 | 0 | 0 | 1.5 | 1.6 | -0.9%
O=C(OCC(O)C(O)COC(=O)c1ccccc1)c1ccccc1 (configuration not stated) | 3 | -2 | 0 | -0.6 | -1.6 | -1.2%
CCOc1cc(C2C3=C(CC(C)(C)CC3=O)N(CCOC)C3=C2C(=O)CC(C)(C)C3)ccc1OC | 13 | -7 | 7 | -0.4 | -9.5 | -1.0%
O=C(Cn1nnc(-c2cccc(C(F)(F)F)c2)n1)NNS(=O)(=O)c1cccc(C(F)(F)F)c1 | / | -4 | 3 | 3.1 | 0.3 | 1.1%
Cc1ccc(OCC(=O)N2CCc3ccccc3C2)cc1 | / | -17 | -3 | -0.8 | -2.9 | 0.6%
CCCS(=O)(=O)NC(=O)C1(C)CCCN(C(=O)c2cc(C)nn2C(C)(C)C)C1 (configuration not stated) | 7 | -11 | 17 | -0.6 | -3.4 | 0.0%
FC(F)(F)c1nnc2ccc(Sc3ccccn3)nn12 | / | -6 | 3 | 0.9 | -0.1 | 2.7%
CC(C)c1ccc(OCc2cccc(C(=O)N/N=C/c3cccnc3)c2)cc1 | 2 | 3 | -8 | 0.7 | 2.8 | 1.3%
COCCNC(=O)c1onc(CSc2ccc(C(C)C)cc2)c1C(=O)O | 9 | 2 | 28 | 1.9 | 2.1 | -0.4%
Cc1coc(NC(=O)CSc2nc(-c3ccncc3)cc(C(F)(F)F)c2C#N)n1 | -6 | -16 | -7 | 0.8 | -1.0 | ?
O=C(Nc1ccccc1NC(=O)c1c(F)c(F)c(F)c(F)c1F)c1c(F)c(F)c(F)c(F)c1F | 11 | 17 | 0 | -0.3 | -3.0 | 25%
CCCc1cc(NC(=O)COC(=O)c2ccc(O)cc2O)n(-c2ccccc2)n1 | / | 6 | -7 | -0.5 | 1.3 | 3.1%
COC(=O)CCC(=O)NC(=S)Nc1c(C)cccc1C | 8 | 2 | 6 | -0.6 | -4.6 | 0.1%
COC(=O)COc1ccc(S(=O)(=O)N2CCN(c3ccccc3F)CC2)cc1 | 3 | -12 | -2 | -0.2 | -1.5 | 2.5%
Cc1ccc(S(=O)(=O)c2nc(-c3cccs3)oc2N2CCC(C(N)=O)CC2)cc1 | 0 | -12 | 2 | 0.0 | -2.9 | -2.7%
CC(=O)Nc1cc(-c2ccc(S(C)(=O)=O)cc2)cn2c(-c3ccc(F)c(Cl)c3)cnc12 | -2 | 3 | 2 | -0.8 | 11 | -1.2%
CC1CN(C(c2ccco2)c2sc3ncnn3c2O)CC(C)O1 (configuration not stated) | 0 | 0 | 0 | -0.3 | -3.9 | 0.2%
O=C(O)CC1(CC(=O)Nc2ccc3c(c2)OCCCO3)CCCCC1 | 12 | -7 | 7 | 0.1 | -1.5 | -0.8%
O=S(=O)(Nc1ccccc1)c1ccc(NS(=O)(=O)c2cccs2)cc1 | -3 | 0 | -8 | 1.0 | -2.5 | 2.5%
N#Cc1nc(Cc2ccccc2)oc1N1CCC(C(N)=O)CC1 | 0 | 0 | -8 | -1.4 | -3.6 | -1.3%
CC(C)(C)c1ccc(C(=O)N/C(N)=N/c2nc3ccccc3o2)cc1 | 6 | -10 | 4 | -0.7 | -1.1 | 16%
CSc1ccc(/C=N/NC(=O)CN2CCN(Cc3ccc(C)cc3)CC2)cc1 | -8 | 6 | 1 | -0.6 | -2.3 | 2.6%
CCOC(=O)c1cnc2c(cnn2C)c1Oc1ccc(OC)cc1 | 1 | -2 | 3 | 1.1 | -5.2 | -0.5%
CC1CCN(C(=S)c2ccc(N(C)C)cc2)CC1 | -8 | -12 | ? | -0.4 | -2.3 | -1.2%
CC(=O)c1cccc(NC(=O)Nc2c(C)nn(C)c2C)c1 | 8 | 23 | -1 | -0.3 | -0.7 | -0.6%
CC1CCCN(S(=O)(=O)c2cc(Cl)ccc2Cl)C1 (configuration not stated) | 35 | -5 | 23 | 2.5 | 0.9 | 2.9%[38.3 µM]
CN1CCN(C(=O)CSc2nc3ccc(NC(=O)c4ccccc4F)cc3s2)CC1 | / | -13 | -1 | 0.0 | -1.6 | 0.3%
COCc1cc(=O)[nH]c(SCC(=O)c2ccccc2)n1 | 8 | -6 | 0 | -0.2 | -11 | -0.7%
O=c1cc(C(F)(F)F)[nH]c2c(OC(F)(F)F)cccc12 | 6 | -4 | 10 | 1.8 | 5.3 | ?
COc1ccc(/C(C)=N/Nc2nc3ccccc3nc2C)cc1 | -17 | -3 | 5 | 2.3 | 4.8 | 8.1%
Cc1cc(C)cc(OCC(=O)Nc2nonc2NC(=O)COc2cc(C)cc(C)c2)c1 | -20 | 10 | -14 | 0.4 | -4.9 | 3.9%
COC(=O)CSc1nc(SCc2ccccc2Cl)nc2c1CCCC2 | 7 | 8 | 32 | 2.6 | 0.3 | 2.3%
CC1=C(C(=O)OC2CCCCC2)C(c2ccc(O)cc2)NC(=O)N1 (configuration not stated) | / | 16 | -1 | / | 0.9 | 1.4%
CCCNC(=O)C1(C)CCCN(Cc2csc3ccccc23)C1 (configuration not stated) | 6 | -8 | -5 | -0.2 | 1.2 | 0.0%
CC(C)n1cnc2c(NCc3ccccc3)cc(OCC3CCN(C)CC3)cc21 | -22 | -12 | -26 | -0.5 | ? | -1.0%
N/N=C(\c1ccccc1)c1cc(Cl)ccc1N | -3 | -4 | -7 | 0.2 | 2.9 | 1.2%

Structural class: the entries above with a furan ring, fused or not.
SMILES | CtBP-E1A inh | D2 potentiator | Six1-Eya2 inh | TRPML1 ag | D2 agonist | PINK1 modulator
COc1ccc(N2CCN(C(=O)C3Cc4ccccc4CN3C(=O)c3ccco3)CC2)cc1 (configuration not stated) | -3 | 22 | -6 | 0.1 | 3.2 | -1.3%
CC1CN(C(c2ccco2)c2sc3ncnn3c2O)CC(C)O1 (configuration not stated) | 0 | 0 | 0 | -0.3 | -3.9 | 0.2%

(further entries)
SMILES | CtBP-E1A inh | D2 potentiator | Six1-Eya2 inh | TRPML1 ag | D2 agonist | PINK1 modulator
COc1ccc(N2CCN(CC(O)c3c[nH]c4ccc(OC)cc34)CC2C)cc1 (configuration not stated) | 7 | -3 | -8 | 0.2 | -0.6 | 0.0%
CC(CN1CCCCC1)C(=O)NN (configuration not stated) | 7 | -4 | 5 | -0.2 | -1.5 | -0.7%
COc1ccc(C(=O)Nc2ccc(C3=NNC(=O)CC3C)cc2NC(=O)c2ccc(OC)cc2)cc1 (configuration not stated) | -8 | 0 | -11 | -0.4 | 3.2 | 1.7%
CCc1nc2c(OCCC3CCCCC3)cccn2c1N(C)C(=O)CC(C)C | -13 | -6 | -19 | 5.4 | -8.9 | 10%
CC(=O)Oc1ccc(N(C(C)=O)S(=O)(=O)c2ccc(C)cc2C)c2ccccc12 | 2 | 6 | -12 | 0.7 | 11 | 0.5%
CN(CC(=O)NCc1cccc(F)c1)C(=O)c1ccco1 | 5 | -21 | 6 | 0.4 | 2.6 | /
O=C1N=NC2=C1c1c3ccccc3c(O)n1CC2 | -5 | 0 | -12 | -0.2 | 6.6 | 2.2%
O=C(Cn1cnc2ccccc21)N/N=C/c1ccc([N+](=O)[O-])cc1 | -5 | 6 | -2 | -0.4 | -3.0 | 3.7%
CC(/C=N/NC(=O)c1cc(C(C)C)[nH]n1)=C\c1ccccc1 | 7 | -1 | 6 | 3.7 | 0.6 | 10.0%
CCOC(=O)c1cc(C)[nH]c(=O)c1C#N | / | 62* | -2 | 2.5 | -0.8 | 2.9%
O=C1Nc2ccc([N+](=O)[O-])cc2OC1CCN1CCCC1 (configuration not stated) | 3 | 5 | 7 | -0.9 | 0.9 | 0.6%
CCc1ccccc1OCC(=O)Nc1cccc(S(=O)(=O)NC2=NCCC2)c1 | 3 | -2 | -2 | -0.7 | 5.5 | -0.2%
Cc1ccc(/C=C/C(=O)OC(C)C(=O)Nc2ccc(Cl)cn2)o1 (configuration not stated) | -15 | -12 | -9 | -0.9 | -5.3 | -0.6%
C=CCCC1(C)C(=O)N(c2ccccc2)c2ccccc21 (configuration not stated) | -1 | -31 | 27 | 0.5 | -2.8 | 8.8%
COc1ccccc1NC(=O)c1c(C)oc2c1CCCC2 | -3 | -15 | -3 | 0.6 | -5.5 | -0.9%
CCN(CC(=O)Nc1cccc(F)c1)Cc1nc2ccccc2c(=O)[nH]1 | 16 | -10 | -16 | -0.6 | -4.1 | 3.7%
O=C1CC(c2ccco2)Cc2nc(N3CCc4ccccc4C3)ncc21 (configuration not stated) | -6 | -5 | -3 | -0.5 | -3.3 | 1.5%
Cn1cnnc1SCC(=O)NC(=O)NCc1ccccc1 | -5 | -4 | 3 | 0.1 | -3.1 | -1.8%
C=CCn1c(O)c(C=Nc2ccc(Cc3ccncc3)cc2)c(=O)[nH]c1=S | 2 | 4 | -1 | 1.3 | 0.2 | 0.0%
CCOC(=O)c1c(N)sc2c1CCCC2=O | -7 | -7 | -1 | 0.0 | -4.4 | 0.1%
CC(C)(C)NC(=O)N1CCCN(c2ccc(C(F)(F)F)cn2)CC1 | 5 | -2 | -12 | -0.8 | -1.7 | 0.6%
Cc1ccc(CC(=O)NCCS(=O)c2ccc(C)cc2)cc1 (configuration not stated) | 0 | -2 | -4 | 1.4 | 1.0 | -1.1%
COc1ccccc1NC(=O)COC(=O)Cc1cccs1 | 0 | -8 | 3 | 1.0 | -1.2 | 0.6%
Cc1ccc(NC(=O)Cn2cc(S(=O)(=O)c3ccc(F)cc3)c(=O)c3cc(F)ccc32)cc1 | 0 | -6 | 7 | 0.5 | -5.0 | 8.8%
OC[C@@H]1CN(Cc2ccc(-c3ccccc3)cc2)C[C@H](n2cnc3c(NCc4ccc(F)cc4)ncnc32)O1 | -16 | 11 | -13 | 0.1 | 8.6 | 1.2%

Two of these compounds, reformatted:
| structure | CtBP-E1A inh | D2 potentiator | Six1-Eya2 inh | TRPML1 ag | D2 agonist | PINK1 modulator |
| --- | --- | --- | --- | --- | --- | --- |
| COc1ccccc1NC(=O)COC(=O)Cc1cccs1 | 0 | -8 | 3 | 1.0 | -1.2 | 0.6% |
| Cc1ccc(CC(=O)NCCS(=O)c2ccc(C)cc2)cc1 (configuration not stated) | 0 | -2 | -4 | 1.4 | 1.0 | -1.1% |
